Bioassay records (PubChem)
Mtb MenB inh: inhibitors of Mycobacterium tuberculosis MenB enzyme | P9WNP5 | MenB enzyme assay, absorbance read-out; some hits fall short of the stated cut | inhibition, %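 (about 12 µg/mL by stock and volumes)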 | 0.43% of 100,000 active;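 active = mean of two replicates above 30%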;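 also: 0% = no compound and 100% = wells with inactive enzyme; the first replicate is given; strong numbers were not always called active; inactives centre near -10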
MbtI inh: blocks the Mycobacterium tuberculosis siderophore enzyme MbtI. P9WFX0. purified MbtI enzyme, fluorescence intensity read-out. inhibition, %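 (about 17 µg/mL by stock and volumes)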. 0.89% of 100,000 active. AID 493033;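 active = above 50% in both replicates, above 80% if mildly self-fluorescent; inactive = the rest, strongly fluorescent compounds included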;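 also: 0% = mean of negative and 100% = mean of positive controls; one replicate is shown; some compounds called inactive have numbers as strong as hits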
Target sequence (P9WFX0 whole entry, looked up): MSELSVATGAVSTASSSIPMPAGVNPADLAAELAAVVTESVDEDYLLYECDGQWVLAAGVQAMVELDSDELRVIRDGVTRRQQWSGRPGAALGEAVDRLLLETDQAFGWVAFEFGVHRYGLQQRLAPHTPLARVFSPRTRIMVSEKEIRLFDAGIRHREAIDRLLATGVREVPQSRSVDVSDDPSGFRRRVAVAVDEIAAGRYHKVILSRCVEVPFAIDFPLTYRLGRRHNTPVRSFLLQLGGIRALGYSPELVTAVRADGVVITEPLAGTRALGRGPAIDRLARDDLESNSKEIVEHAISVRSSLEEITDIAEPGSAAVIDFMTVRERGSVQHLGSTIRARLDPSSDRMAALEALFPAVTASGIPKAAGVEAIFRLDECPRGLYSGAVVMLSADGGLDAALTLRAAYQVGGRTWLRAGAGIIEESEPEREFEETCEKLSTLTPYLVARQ
Polio RdRp inh: inhibitors of poliovirus RNA polymerase binding and polymerization; P03300; poliovirus polymerase elongation, fluorescence polarization; active compounds read low; % elongation, % (compound at 16.7 µg/mL); 0.66% of 150,000 active; in the data active = % elongation below about 90%; also: some results filed as inactive read as strong as hits
Target sequence (P03300 1749-2209 limits assumed): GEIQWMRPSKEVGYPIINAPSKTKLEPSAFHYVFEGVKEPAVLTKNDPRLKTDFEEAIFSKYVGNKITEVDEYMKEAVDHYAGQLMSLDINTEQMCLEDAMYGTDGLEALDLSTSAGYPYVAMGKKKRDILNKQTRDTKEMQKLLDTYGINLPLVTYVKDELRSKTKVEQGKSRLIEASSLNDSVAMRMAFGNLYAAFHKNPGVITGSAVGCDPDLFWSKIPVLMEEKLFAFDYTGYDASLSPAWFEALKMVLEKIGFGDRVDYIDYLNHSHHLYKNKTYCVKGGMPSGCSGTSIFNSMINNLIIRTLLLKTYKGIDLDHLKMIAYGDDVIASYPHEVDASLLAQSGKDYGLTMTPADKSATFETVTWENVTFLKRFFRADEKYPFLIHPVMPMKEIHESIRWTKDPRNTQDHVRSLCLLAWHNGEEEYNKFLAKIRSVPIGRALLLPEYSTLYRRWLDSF
Polio RdRp inh intensity: recorded beside Polio RdRp inh, whose call it bears; % elongation; measured here: total intensity read-out; formula for this scale not given here;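 total fluorescence in place of polarization; lower means less elongation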
Active calls of the source: *; nt = not tested or not shown; & = joins results of further samples. Random draw from the library; 1.8% or so of the library scored in one or more.

Screens in order – Mtb MenB inh | MbtI inh | Polio RdRp inh | Polio RdRp inh intensity
- CC(=O)Nc1sc2c(c1-c1nsc(=O)o1)CCCC2
  -30 | nt | 82* | 80*
- O=c1cc(-c2cccc(O)c2)oc2ccc(O)cc12
  -48 | nt | 101 | 105
- O=C(CN1CCc2ccccc21)NC(=O)Nc1ccc2c(c1)OCCO2
  -15 | -7 | 103 | 102
- CC(=O)Nc1ccc(NC(=O)CC(NC(C)=O)c2ccccc2)cc1 (configuration not stated)
  -23 | -4 | 105 | 107
- COc1ccc(/C=N/N2C(=O)C3C4C=CC(C4)C3C2=O)cc1Br (configuration not stated)
  -4 | 4 | 101 | 101
- Cc1cc(Cl)ccc1OCC(=O)Nc1sc2c(c1C#N)CCC2
  -1 | nt | 80* | 85*
- O=C(NCCC1=CCCCC1)c1ccc2c(c1)OCO2
  -3 | 2 | 103 | 100
- CCC(C)N1CCN(C(=O)C(c2ccccc2)c2ccccc2)CC1 (configuration not stated)
  -13 | nt | 96 | 91
- Cc1nn(-c2nc(-c3ccco3)cc(C(F)(F)F)n2)c(C)c1Br
  -29 | -8 | 105 | 102
- O=C(CSc1nc2ccccc2[nH]1)CSc1nc2ccccc2[nH]1
  -7 | 32 | 109 | 104

Single records, as listed above. Values in the order: Mtb MenB inh | MbtI inh | Polio RdRp inh | Polio RdRp inh intensity
Profile of `O=C(CN1CCc2ccccc21)NC(=O)Nc1ccc2c(c1)OCCO2` → -15 | -7 | 103 | 102
Profile of `O=C(CSc1nc2ccccc2[nH]1)CSc1nc2ccccc2[nH]1` → -7 | 32 | 109 | 104
Profile of `O=C(NCCC1=CCCCC1)c1ccc2c(c1)OCO2` → -3 | 2 | 103 | 100
Profile of `Cc1nn(-c2nc(-c3ccco3)cc(C(F)(F)F)n2)c(C)c1Br` → -29 | -8 | 105 | 102

The main list resumes, repeating the five entries before the break.
Screens in order – Mtb MenB inh | MbtI inh | Polio RdRp inh | Polio RdRp inh intensity
- Cc1cc(Cl)ccc1OCC(=O)Nc1sc2c(c1C#N)CCC2
  -1 | nt | 80* | 85*
- O=C(NCCC1=CCCCC1)c1ccc2c(c1)OCO2
  -3 | 2 | 103 | 100
- CCC(C)N1CCN(C(=O)C(c2ccccc2)c2ccccc2)CC1 (configuration not stated)
  -13 | nt | 96 | 91
- Cc1nn(-c2nc(-c3ccco3)cc(C(F)(F)F)n2)c(C)c1Br
  -29 | -8 | 105 | 102
- O=C(CSc1nc2ccccc2[nH]1)CSc1nc2ccccc2[nH]1
  -7 | 32 | 109 | 104
- Cc1cccc(CN2CCC(CNC(=O)COc3cc(=O)n(C)c4ccccc34)CC2)c1
  -14 | -1 | 103 | 103
- CCOC(=O)c1ccc(NC(=O)C2=CC(=O)N3CCN=C3S2)cc1
  -60 | 60 | 103 | 102
- N#Cc1c(C(F)(F)F)cc(-c2ccccc2)nc1SCC(=O)N1CCCCC1
  -22 | -7 | 103 | 108
- O=c1c(Cl)c(NCCc2ccccc2)cnn1-c1ccccc1
  -12 | nt | 100 | 97
- O=C1CC(C(=O)Nc2ccccc2)N=C(Nc2nc3ccccc3s2)N1 (configuration not stated)
  -15 | 6 | 101 | 102
- Cc1sc2nc(C(=O)Oc3ccc(F)cc3)cc(N)c2c1C
  -12 | nt | 103 | 108
- Cc1nn(CC(=O)N2CCCC2)c(=O)c2nn(-c3ccccc3)c(C)c12
  -15 | -10 | 106 | 102
- O=C1OC(c2ccccc2)/C(=C(\O)c2ccccc2)C1=O (configuration not stated)
  nt | -6 | 99 | 100
- Oc1ccccc1OCCCCCOc1ccccc1O
  0 | -5 | 101 | 103
- COc1ccccc1N1C(=O)C(Cc2ccccc2)N=C1N(C)CCCc1ccco1 (configuration not stated)
  -28 | 6 | 104 | 105
- CCCSc1nc2c(c(=O)n1CC)SC(C)C2 (configuration not stated)
  -5 | -10 | 101 | 103
- Cc1ccccc1Nc1c(-c2ccc(O)cc2)nc2sccn12
  -9 | -3 | 103 | 103
- CCN(CC)C(=O)COc1ccc(-c2nnc(N3CCCCC3)c3ccccc23)cc1
  -9 | -9 | 105 | 101
- COc1ccc(C(=O)N2CCC(C(=O)O)CC2)cc1
  13 | -2 | 101 | 101
- O=C(/C=C/c1ccccc1)N1CCN(c2ccc(N3CCCCC3)nn2)CC1
  -7 | -12 | 101 | 107
- NC(=O)C1c2ccccc2Oc2ccccc21
  -22 | -5 | 102 | 104
- O=C(c1ccccc1)c1ccc(F)cc1
  -5 | -2 | 102 | 106
- Cc1cc(C(=O)CSC2=N/C(=C\c3ccco3)C(=O)N2c2ccc(OC(F)F)cc2)c(C)n1CC1CCCO1 (configuration not stated)
  -14 | 7 | 99 | 94
- O=C(Oc1ccc(C=Nc2ccc(F)cc2)cc1)c1cccs1
  -8 | nt | 107 | 107
- O=c1oc2ccccc2n1Cc1nnc(-c2ccccc2)o1
  -9 | -18 | 102 | 107
- CN(C)C=NC(=O)CN1CCCC1=O
  -68 | -10 | 104 | 101
- S=c1[nH]nc(-c2cccnc2)n1/N=C/C=C/c1ccco1
  -53 | nt | 97 | 106
- COc1ccc(/C=N/c2oc(-c3cccs3)c(-c3cccs3)c2C#N)cc1
  -15 | 14 | 106 | 106
- CC(=O)NS(=O)(=O)c1ccc(N2C(=O)CC(Sc3nccc(C)n3)C2=O)cc1 (configuration not stated)
  -1 | 13 | 105 | 107
- O=C(CC(c1ccccc1)c1ccccc1)N1CCOCC1
  3 | nt | 97 | 95
- O=C(OCc1cccs1)C1CC1
  nt | -5 | 99 | 102
- O=C1CS/C(=N/N=C/c2ccccc2)N1c1ccc(O)cc1
  -6 | -15 | 98 | 101
- NC(=O)C1CC(O)CN1c1nc(-c2cccnc2)nc2ccccc12 (configuration not stated)
  -6 | 14 | 104 | 113
- COc1ccc(-c2cc(C(=O)N3CCCC3)no2)cc1S(=O)(=O)N1CCOCC1
  14 | -3 | 100 | 102
- Cc1cccc(-c2ocnc2C(=O)N2CCN(C(=O)c3cccs3)CC2)c1
  -17 | -6 | 104 | 101
- COc1ccc(C(=O)N(CCc2ccccc2)Cc2ccccc2)c(OC)n1
  -20 | -7 | 101 | 99
- CCc1ccc(NC(=O)c2ccccc2N)cc1
  nt | -295 | 104 | 109
- O=S(=O)(/N=C(\N=C1CCN(c2ccccc2)N1)c1ccccc1)c1ccccc1
  -8 | 2 | 106 | 111
- O=C(OCc1ccc2c(c1)OCO2)c1cc2ccccc2oc1=O
  -15 | -5 | 101 | 104
- COc1cccc(C(=O)N2CCN(Cc3ccccc3C(F)(F)F)CC2)c1OC
  -15 | nt | 100 | 103
- CCCN(Cc1nnc(-c2ccccc2Cl)o1)C(=O)c1nc(-c2ccccc2)n(-c2ccccc2)n1
  -41 | -10 | 106 | 109
- CN1C(=O)c2ccccc2C(C(=O)NCc2ccco2)C1c1cn(C)c2ccccc12 (configuration not stated)
  -13 | 9 | 101 | 90
- COC(=O)c1[nH]c2sc3c(c2c1N)CCCC3
  -18 | 36 | 97 | 100
- O=C(Nc1ccccc1C(F)(F)F)C1Sc2nnc(-c3ccccc3)n2NC1c1ccc(F)cc1 (configuration not stated)
  -26 | -1 | 101 | 102
- Cc1ccc(C)c(/C(O)=C2\C(=O)C(=O)N(CCN(C)C)C2c2cccc(Br)c2)c1 (configuration not stated)
  -22 | -2 | 100 | 100
- O=C1CNc2c(c(=O)oc3ccccc23)N1
  -22 | 116 | 102 | 106
- C=C1C[C@]23C[C@@]1(O)CC[C@H]2[C@@]12C=C[C@H](O)[C@@](C)(C(=O)O1)[C@H]2[C@@H]3C(=O)O
  12 | -4 | 100 | 102
- c1ccn2c(CNC3CC4CC3C3CCCC43)nnc2c1 (configuration not stated)
  -8 | 12 | 101 | 106
- COc1ccc(N(C(=O)c2ccccc2)S(=O)(=O)c2ccc(Cl)cc2)cc1
  -50 | 4 | 101 | 98
- COC(=O)CN1C=C(C(=O)OC)C(c2cccc(Cl)c2)C(C(=O)OC)=C1
  -43 | 124 | 102 | 102
- COc1ccc(C)cc1NC1=NCCCS1
  nt | -3 | 100 | 95
- CCN1CCCC1CNC(=O)c1cc2c(s1)-c1ccccc1SC2 (configuration not stated)
  -24 | 3 | 104 | 103
- Cc1ccc(-c2nc(C#N)c(NCCCN3CCCC3=O)o2)cc1
  -18 | 112 | 106 | 97
- O=C(Cc1ccccc1)NC1CCS(=O)(=O)C1 (configuration not stated)
  27 | -1 | 103 | 101
- O=C(Nc1nn[nH]n1)c1ccc(S(=O)(=O)N2CCCCC2)cc1
  5 | -6 | 103 | 108

More records.
Screens in order – Mtb MenB inh | MbtI inh | Polio RdRp inh | Polio RdRp inh intensity
- CC(NC(=O)Nc1ccccc1)C(=O)N1CCc2ccccc21 (configuration not stated)
  -17 | 31 | 98 | 106
- Cc1ccc(C(=O)CCc2nc3ccccc3s2)cc1C
  -14 | nt | 104 | 115
- COC(=O)c1scc2c(N3CCC(n4cccc4)CC3)cc(C(F)(F)F)nc12
  -17 | 2 | 124 | 151
- O=S1(=O)CCC(Cc2n[nH]c(=S)o2)C1 (configuration not stated)
  -17 | 24 | 97 | 100
- CCOc1ccc(N(CC)C(=O)COc2cc(=O)n(CC)c3ccccc23)cc1
  -5 | 4 | 103 | 100
- COCc1cc(OC(=O)N(C)C)nc2c1c(-c1cccs1)nn2C
  -3 | -34 | 107 | 116
- COc1ccc(CC(C)(N)C(=O)O)cc1OC (configuration not stated)
  -9&3 | -5 | 110&101 | 110&101
- CC(O)c1nc2ccccc2n1C(=O)c1ccc(OCc2ccccc2)cc1 (configuration not stated)
  nt | -12 | 102 | 99
- CCc1[nH]nc2c1C1(C(=O)Nc3ccc(Cl)cc31)C(C#N)=C(N)O2 (configuration not stated)
  -1 | -4 | 102 | 101
- Cc1cccc(N2C(=O)CC(c3cn(C)c4ccccc34)C2=O)c1 (configuration not stated)
  -4 | -17 | 98 | 121
- CC1CCCC(NC(=O)CN2N=C(c3ccc(Cl)cc3)CCC2=O)C1C (configuration not stated)
  -20 | -27 | 101 | 103
- CCOc1cc2[nH]c(=O)n(CCCC(=O)NCCc3ccccc3)c(=O)c2cc1OCC
  -18 | 36 | 99 | 102
- CN1/C(=C\C(=O)C2CCCCC2)C(C)(C)c2ccccc21
  -34 | -14 | 103 | 115
- C=CCn1c(NC(C)c2cc(Cl)ccc2O)nc2ccccc21 (configuration not stated)
  -18 | -8 | 99 | 98
- NC(=O)c1c(Nc2nc3c(F)cccc3s2)sc2c1CCCC2
  -32 | 46 | 116 | 170
- Cc1cccc(CC2SC(=Nc3ccc(Br)cc3)NC2=O)c1 (configuration not stated)
  nt | -7 | 101 | 99
- NC(=O)CSc1nnc(-c2c[nH]c3ccccc23)n1CC1CCCO1 (configuration not stated)
  -9 | -9 | 106 | 109
- CCC(=O)N1CCc2cc(S(=O)(=O)CCC(=O)N3CCN(c4ccccc4)CC3)ccc21
  9 | -1 | 98 | 104
- O=C(NCCN1C(=O)S/C(=C\c2cccnc2)C1=O)c1cccs1
  0 | 11 | 100 | 104
- COc1ccc(CN(Cc2cccs2)C(=O)c2ccccc2-n2cnnn2)cc1OC
  8 | 7 | 97 | 101
- COc1ccc(-c2c(C#N)c(SCC(=O)c3ccccc3)nc3c2C(=O)CC(C)(C)C3)cc1
  -7 | 16 | 100 | 108
- CN1CCC(N(C)C(=O)Nc2cccc3ccccc23)CC1
  -38 | 73 | 102 | 105
- COc1ccc(Cc2nnc(C(=O)NCCc3ccccc3)o2)cc1OC
  -2 | -9 | 102 | 104
- COC(=O)c1cc(NC(=O)N2c3ccccc3Sc3ccccc32)cc(C(=O)OC)c1
  -31 | 12 | 99 | 106
- CSc1ccc(CCNC(=O)C2CCCN(c3nnc(-n4cccc4)s3)C2)cc1 (configuration not stated)
  -24 | -2 | 102 | 103
- O=C(/C=C\Nc1cccc(N/C=C\C(=O)c2ccccc2)c1)c1ccccc1
  -13 | nt | 105 | 103
- CCCCn1nc(C)c(C(=O)N2CCN(Cc3ccc(OC)c(F)c3)CC2)c1Cl
  2 | -3 | 103 | 111
- Cc1ccc(O)c(C(=O)c2cnn(C(=O)Cc3csc(C)n3)c2)c1
  -27 | -13 | 86* | 81*
- CC(=O)Nc1ccc(NC(=O)CC2C(=O)Nc3ccccc3N2C(C)=O)cc1 (configuration not stated)
  -13 | -3 | 100 | 102
- COc1ccc(C(F)(F)F)cc1N
  2 | 6 | nt | nt
- COC(CNC(=O)c1ccc(/C=C2/Sc3ccccc3N(Cc3cccc(C)c3)C2=O)cc1)OC
  -49 | -1 | 104 | 107
- Cc1ccc(C(=O)/C=c2\[nH]c(=O)/c(=C/c3cccnc3)s2)cc1
  -13 | 2 | 101 | 110
- CCOC(=O)N1C/C(=C/c2ccsc2)C(=O)/C(=C\c2ccsc2)C1
  -84 | -4 | 98 | 88
- CC1=C(C#N)C(=O)NC(C)(C)C1
  7 | -20 | 101 | 103
- N#CC(N)c1ccc(F)cc1 (configuration not stated)
  -8 | -4 | 115 | 121
- COC(=O)c1cc2oc3ccccc3c2n1CC(=O)N(C)c1ccccc1
  3 | -4 | 105 | 108
- O=C(Nc1ccccc1)c1ccc(F)cc1
  22 | -22 | 102 | 101
